High-throughput results deposited in PubChem by several laboratories.
Mtb hypoxia rep: inhibitors of hypoxia-regulated fluorescent reporter in Mycobacterium tuberculosis; 300,000 compounds, 0.1% hits; M. tuberculosis hypoxia-regulated fluorescent reporter, fluorescence; fluorescence inhibition, % (no concentration beside the values);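 active = 35 to 45% if threefold the growth effect, above 45% if 1.5-fold the growth effect; inactive = the rest, general growth blockers included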;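 note: wells of about 50 µL received 100 nL stock; 0% = vehicle wells and 100% = reference inhibitor wells; whole bacteria with a GFP reporter of the hypoxia response; strong numbers were not always called active; many hits fall short of the cut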
PrP 5UTR inh: suppresses PrP 5' UTR mRNA reporter expression | inhibition, % (concentration not given with the values) | 340,000 compounds, 0.35% hits | cell-based PrP 5' UTR mRNA reporter, plate reader;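 active = every replicate at 50% or more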;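 note: 0 = median of the neutral control wells; tested in H4 reporter cells; numbers are from one replicate; inactives centre near -14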
Sa RN4220 lethal: S. aureus RN4220 growth inhibition. OD600, 16 h. inhibition, % (concentration not given with the values). 330,000 compounds, 0.33% hits. AID 1259311;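 active = z-score of -3 or lower and OD600 up to 0.18 on both plates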;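 note: plate controls were untreated cells for no effect and reference antibiotic for full effect; stock transfer was 100 nL into about 80 µL; one replicate is shown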
ugtP null kill: kills S. aureus RN4220 lacking UgtP. S. aureus RN4220 ugtP deletion, OD600 growth, 16 h; some inactives read as strong as hits. growth inhibition, % (no concentration beside the values). 330,000 compounds, 0.54% hits. AID 1259309;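 active = z-score under -3 and OD600 up to 0.15 on both plates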;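 note: plate controls were untreated wells for no effect and antibiotic for full effect; wells of about 80 µL received 100 nL stock; the first replicate is given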
Bead autofluor: compound fluorescence in toxin protease inhibitor counterscreen. compound autofluorescence counterscreen, microsphere flow cytometry; stronger effect = higher value. fluorescence intensity (concentration not given with the values). 360,000 compounds, 3.1% hits;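 active = at least 3 SD above the mean of all compounds, about 16000 in these data; inconclusive = too few beads counted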;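 note: 100 nL of 1 mM stock went into each well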
BJeLR viability: BJeLR cell viability loss; 300,000 compounds, 0.17% hits; BJeLR (HRASV12) viability, CellTiter-Glo ATP luminescence, 48 h; reference of the scale not given here; inhibition, % (test concentration not listed);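 active = replicate mean above 50%; inconclusive = above 50% but judged a plate artefact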;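 note: 50 nL library stock added to about 25 µL; numbers are from one replicate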
Mtb hypoxia rep growth: also measured in Mtb hypoxia rep; calls as there; growth inhibition, %; measured here: M. tuberculosis growth (absorbance);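 0% = vehicle and 100% = reference antibiotic; read after six days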
* = called active by the depositor; ? = inconclusive; . = not tested or not shown.

item	Molecule	Mtb hypoxia rep	Mtb hypoxia rep growth	PrP 5UTR inh	Sa RN4220 lethal	ugtP null kill	Bead autofluor	BJeLR viability
1	C=C(CCC(O)C(C)(C)O)C1CC[C@]2(C)C1CCC1[C@@]3(C)CCC(=O)C(C)(C)C3CC[C@]12C (stereo partly drawn)	14	10	.	5.3	5	.	.
2	O=C(/C=C/c1cccnc1)c1ccc([N+](=O)[O-])cc1	-2	4	-8	0.3	-2	4172	-9
3	COc1ccc(C)cc1NC(=O)CSc1nc2ccccc2nc1N1CCCCC1	8	8	-2	-13	4	5005	0
4	O=C(COc1ccc(Br)cc1Cl)NC(=O)Nc1ccc2c(c1)OCCO2	-4	15	-20	3.9	4	4199	13
5	Cc1cc(Nc2cccc(Cl)c2)nc(NCc2ccccc2)n1	0	6	6	7.4	-13	2495	15
6	CC(=O)C1=C(C)N(Cc2ccccc2)C(=O)N[C@H]1c1cccc(C(F)(F)F)c1	.	.	-8	.	.	2792	11
7	C=CCN1C(=O)C2(OCCCO2)c2cc(Cl)ccc21	1	-1	-26	2.2	1	4120	-7
8	Oc1ccc(N2CCN(c3ncnc4sc5c(c34)CCC5)CC2)cc1	1	13	-6	4.8	-12	2647	-16
9	Cc1cc(C)n2nc(C(=O)OCC(=O)N(CCC#N)c3ccc(F)cc3)nc2n1	1	-2	2	2.3	1	.	-10
10	CCc1nc2ccccc2n1CC(=O)N1CCN(S(=O)(=O)c2cccc(C(F)(F)F)c2)CC1	12	3	-10	1.5	4	5406	-2
11	O=C(O)c1ccc(Nc2ccc([N+](=O)[O-])c3nonc23)cc1	10	3	-9	5.4	15	3089	0
12	COCCN(C(=O)CNC(=O)c1ccco1)C(C(=O)NC1CCCC1)c1ccc(OC)cc1 (stereo not drawn)	-8	2	-14	0.4	2	3726	0
13	CCN1CCN(S(=O)(=O)c2ccc(Cl)c(C(=O)N(C)CCOc3ccc(Cl)cc3)c2)CC1	-12	6	-22	-1.4	-4	?	-2
14	CC(=O)Nc1ccc(SCC(=O)N(CCC#N)c2ccc(C)cc2)cc1	13	7	-11	4.8	9	16531*	-4
15	Cc1cccnc1NC(=O)c1nn(C)c2c1CS(=O)(=O)c1ccccc1-2	8	-9	-7	2.5	5	4702	-13
16	COc1ccc(C(=O)NC2CCCCCC2)cc1S(=O)(=O)Nc1ccc(Br)cc1	.	.	-25	-8.2	-8	2233	6
17	COc1cccc(CN(Cc2cccnc2)S(=O)(=O)c2ccc(-n3cnnn3)c(C)c2)c1OC	3	8	-3	5.3	2	9966	-1
18	COC(=O)c1ccccc1NC(=O)c1ccc(COc2ccc(C)c(C)c2)o1	10	14	-10	9.4	-7	3468	-2
19	COc1ccc(C(=O)Nc2cc3c(cc2C#N)OCO3)cc1S(=O)(=O)N1CCN(C)CC1	.	.	3	2.7	5	4574	-16
20	CC1=CC(C)(C)C(C(=O)O)C(C(=O)O)C1 (stereo not drawn)	-8	-3	-13	-1.2	-5	3827	2
21	COc1ccc(OC)c(NC(=O)c2ccccc2SC)c1	2	5	-14	4.3	9	16141*	13
22	CCOc1cccc(CN2CCN(Cc3ccc(C)o3)C(CCO)C2)c1O (stereo not drawn)	0	2	-20	0.9	11	4266	3
23	CCCCCn1c(=O)[nH]c2cc(C(=O)NCCCN3CCCCC3CC)ccc2c1=O (stereo not drawn)	0	-11	-12	2.3	6	4806	6
24	Cc1c([N+](=O)[O-])c([N+](=O)[O-])nn1CC(=O)N1CCCCC1	9	15	-18	-1.0	11	2044	1
25	CC(C)[C@H](NC(=O)c1ccccc1F)C(=O)OCC(=O)NC(=O)NC1CCCCC1	6	5	1	2.8	1	4832	.
26	CC(=O)NCCc1ccc(S(=O)(=O)Nc2ccc(NC(=O)c3ccc(F)cc3)cc2)cc1	-7	2	-14	1.4	4	3720	2
27	Cc1cc(C(=O)NCCCn2ccnc2)sc1-c1ccccc1	-8	-7	-16	-2.9	7	8679	-5
28	CC(C)[C@H](NC(=O)c1ccccc1)C(=O)OCC(=O)N1CCCc2ccccc21	.	.	-11	.	.	2094	2
29	COc1ccc(OCCOc2ccc(S(=O)(=O)N3CCCC3)cc2C(N)=O)cc1	9	7	-4	-0.7	0	8831	.
30	COc1ccc(S(=O)(=O)N2CCOC2CNC(=O)C(=O)NCc2cccnc2)cc1C (stereo not drawn)	5	-3	9	2.0	-2	3255	7
31	COc1ccc(OC)c(C(=O)COC(=O)c2ccc([N+](=O)[O-])o2)c1	22	10	-8	9.7	6	4064	.
32	Cc1cc(C)c(C)c(S(=O)(=O)NCC(=O)Nc2ccc(F)cc2)c1C	-2	-6	-2	7.4	-7	5760	-12

Structures above that have a furan ring, fused or not:
item	Molecule	Mtb hypoxia rep	Mtb hypoxia rep growth	PrP 5UTR inh	Sa RN4220 lethal	ugtP null kill	Bead autofluor	BJeLR viability
12	COCCN(C(=O)CNC(=O)c1ccco1)C(C(=O)NC1CCCC1)c1ccc(OC)cc1 (stereo not drawn)	-8	2	-14	0.4	2	3726	0
18	COC(=O)c1ccccc1NC(=O)c1ccc(COc2ccc(C)c(C)c2)o1	10	14	-10	9.4	-7	3468	-2
22	CCOc1cccc(CN2CCN(Cc3ccc(C)o3)C(CCO)C2)c1O (stereo not drawn)	0	2	-20	0.9	11	4266	3
31	COc1ccc(OC)c(C(=O)COC(=O)c2ccc([N+](=O)[O-])o2)c1	22	10	-8	9.7	6	4064	.

More structures:
item	Molecule	Mtb hypoxia rep	Mtb hypoxia rep growth	PrP 5UTR inh	Sa RN4220 lethal	ugtP null kill	Bead autofluor	BJeLR viability
33	COc1cc(CNCCCN2CCOCC2)c(Br)cc1OCC(=O)Nc1ccccc1C	10	8	-12	4.0	-3	3240	1
34	O=C(Nc1cccnc1)c1cc(-c2ccc(Cl)cc2)on1	0	0	-24	8.2	3	4246	-2
35	CC(C)COc1ccc(C(=O)OCC(=O)NCCC2=CCCCC2)cc1	7	1	-5	1.1	7	?	-3
36	Cc1cc(=O)n2nc(N3CCCC(C(=O)N4CCN(C)CC4)C3)sc2n1 (stereo not drawn)	.	.	-14	6.2	6	2989	-2
37	CC(C)(C)S(=O)(=O)c1cnc2c(S(=O)(=O)c3ccccc3)cnn2c1N	6	2	-5	3.1	-2	4329	4
38	CCOc1c(Cl)cc(C(=O)Nc2cccc(C(=O)O)c2)cc1Cl	-5	19	-64	1.0	-15	4315	4
39	N#CC(CC(=O)c1ccc(Cl)cc1)c1ccccc1 (stereo not drawn)	17	11	-12	-1.0	-2	3019	.
40	COc1ccc(C2CC(=O)C(C=NCCN3CCN(C(=S)Nc4ccccc4)CC3)=C(O)C2)cc1 (stereo not drawn)	-10	10	-14	1.5	1	4422	-11
41	Cc1ccc(NC(=O)C2CCN(S(=O)(=O)c3ccc4c(c3)NC(=O)C(C)S4)CC2)cc1Cl (stereo not drawn)	0	2	-7	-22	-18	.	5
42	CCOCCc1c(O)nc(SC)[nH]c1=O	3	-21	-10	4.1	15	4314	6
43	C#CCn1cc(/C=C2\NC(=O)NC2=O)c2ccccc21	13	8	2	-1.8	0	3633	6
44	COc1ccc(OCCNS(=O)(=O)c2cccc([N+](=O)[O-])c2)cc1	.	.	-5	.	.	4533	-9
45	Cc1nn(-c2ccccc2)c2nc(N)c(C#N)c(-c3ccc(O)c(O)c3)c12	-4	6	-8	2.5	9	3575	4
46	COc1ccc(Cl)c(S(=O)(=O)N2CCCC2)c1	.	.	-2	1.3	-5	2827	-7
47	CC(=O)N1CCOCCOCCN(C(C)=O)CCOCCOCC1	-4	3	-2	1.3	-4	2162	-5
48	Cn1c(=O)[nH]c(=O)c2cc(C(=O)c3cc(F)ccc3O)cnc21	12	12	-15	0.5	4	4381	-3
49	COc1cccc(Nc2nc3ccccc3n3nnnc23)c1	-4	1	-33	3.0	0	?	-19
50	C/C(=N\Nc1cc(Cl)nc(C)n1)c1ccccc1	.	.	-61	.	.	10866	-7
51	CN1/C(=C/C(=O)COC(=O)CN2C(=O)C3CC=CCC3C2=O)C(C)(C)c2ccccc21 (stereo not drawn)	8	5	-8	6.9	8	3112	.
52	CC1=NN(c2ccc(C)cc2)C(=O)/C1=C\c1ccc(Br)s1	-5	0	-13	-0.9	-7	2375	4
53	COC(=O)c1cn(C)c2ccc(S(=O)(=O)N3CCCC3)cc2c1=O	12	16	-25	1.9	4	20045*	4
54	CCN1CCN(C(=O)CN(CC)S(=O)(=O)c2ccc3ccccc3c2)CC1	15	2	-28	1.5	6	3781	9
55	O=S(=O)(c1cccs1)N1CCN(CCOc2ccc(Cl)cc2)CC1	-2	2	-12	-3.7	11	8163	.
56	CCC(=O)Nc1c2c(nn1-c1ccc(OC)cc1)CSC2	3	6	-53	1.8	0	5439	-8
57	Cc1cc(SCC(=O)NC2CCCC2)nc2ccccc12	1	5	-2	1.8	2	5543	-8
58	O=C(Nc1nnc(CSCc2ccc(F)cc2)s1)c1ccc([N+](=O)[O-])cc1	6	1	-23	3.6	-2	8181	5
59	O=C(N/N=C/C1C(c2ccccc2)C1(Cl)Cl)c1cccc(Cl)c1 (stereo not drawn)	.	.	-1	.	.	2318	-4
60	Cn1c(CC(=O)Nc2ccc(F)cc2)nnc1SCC(=O)Nc1nncs1	1	14	-13	5.5	3	3643	-16
61	O=C(COC(=O)c1ccc(Br)o1)Nc1nc2c(F)c(F)c(F)cc2s1	0	0	2	-5.4	6	3592	8
62	O=C(CC1CC=CCC(NC(=O)OCC2c3ccccc3-c3ccccc32)C(=O)OCC(Cc2ccccc2)NC1=O)NCCO (stereo not drawn)	-3	11	.	-2.2	0	.	.
63	Cc1ccc(CN2CC(C(=O)NC(c3nc4ccccc4[nH]3)C(C)C)CC2=O)cc1 (stereo not drawn)	-3	-1	-31	-7.7	4	8405	.
64	Nc1c(-c2ccccc2)nc(Cl)nc1-c1ccccc1	2	3	-15	1.6	8	6816	7
65	Fc1cccc(-c2oncc2-c2nnnn2-c2ccc(Cl)cc2)c1	5	5	-25	4.1	-6	3953	3
66	COC(=O)C1=C(c2ccc(F)cc2OCc2ccccc2)CC2CCC1N2C(=O)NCCNC(C)=O (stereo not drawn)	6	3	.	3.8	3	.	.
67	Cc1ccc(CNC(=O)N[C@@H](Cc2ccccc2)C(=O)O)cc1	7	5	-18	3.8	0	10593	4
68	COc1cc(OC)c(C(=O)Nc2cc(Cl)ccc2-n2cncn2)cc1OC	-6	3	-15	5.6	5	?	-7
69	CCc1cc2c3c(c(=O)oc2cc1OCC(=O)OC)CCCC3	12	1	-26	7.2	15	4001	0
70	CC1(C)CC(=O)C=C(NCc2cccc(C(F)(F)F)c2)C1	6	0	-11	3.8	5	?	19
71	Cc1nnnn1CC(=O)Nc1cccc([N+](=O)[O-])c1	-4	10	-15	1.9	10	4063	-7
72	Cc1onc(-c2c(Cl)cccc2Cl)c1C(=O)N1CCCCC1	6	6	-2	1.1	7	3666	13
73	O=C(O)c1ccc(NCc2cccnc2)c([N+](=O)[O-])c1	-2	9	6	-1.4	0	3580	-7
74	Cc1ccc(OCCSc2nnc(-c3ccncc3)n2C)cc1	2	5	-37	1.7	-10	22301*	.
75	CCOC(=O)Cc1csc(NC(=O)Cc2ccc(Br)cc2)n1	11	4	-8	-5.7	15	3973	1
76	CCNc1ccc(C2(O)C(=O)c3ccccc3C2=O)cc1	10	7	-10	-5.4	-2	2470	0
77	O=C(c1cccnc1)N1C2C=CC(C2)C1(C(F)(F)F)C(F)(F)F (stereo not drawn)	.	.	-18	0.8	-3	4879	-6
78	COCCNC(=O)CCCn1c(=O)c2cc(OC)c(OC)cc2n(CC(=O)c2cccc(OC)c2)c1=O	12	-6	-7	1.4	11	3494	2
79	CC(=O)COc1ncn(-c2ccccc2)n1	4	11	-14	-4.2	-4	3116	3
80	Cc1cc(=O)[nH]c(-n2nc(C)cc2C)n1	4	18	0	2.2	-1	2908	4
81	Cc1ccc(-n2nc(C)c3c2NC2=C(C(=O)CC(C)(C)C2)C3c2ccccc2OCC(=O)O)cc1 (stereo not drawn)	10	-4	-14	14	2	4378	-4
82	Cc1ccc(-n2c(C)cc(C)c(C#N)c2=O)cc1Cl	.	.	-11	1.7	1	4726	3
83	C=CCc1ccccc1OCC(O)CN1CCN(c2ccccc2F)CC1 (stereo not drawn)	.	.	-3	3.9	7	3270	5
